High-throughput results (PubChem)
FGF22 binding: FGF22 (human) thermal shift binding | Q9HCT0 | AID 651658 | actives 1.5% (n = 340,000) | recombinant FGF22 thermal shift, SYPRO orange fluorescence; percent of sucrose octasulfate shift, DMSO zero | calls only at 9.99 µM;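 active = melting point raised past a set limit in the mean and every replicate; three in four hits are not shown here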
Target sequence (Q9HCT0 whole entry, looked up): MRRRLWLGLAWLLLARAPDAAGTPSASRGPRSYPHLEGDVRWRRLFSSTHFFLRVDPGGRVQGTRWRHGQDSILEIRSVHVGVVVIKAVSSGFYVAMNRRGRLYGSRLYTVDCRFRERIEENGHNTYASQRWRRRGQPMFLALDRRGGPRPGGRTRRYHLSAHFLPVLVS
MLL AF4-AF9 inh: blocks AF4 peptide binding to human AF9 | P42568 | AlphaScreen, biotin-AF4 peptide binding to FLAG-AF9 | inhibition, % at 10 µM | actives 0.47% (n = 350,000) | AID 651704;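 active = every replicate reaching a set inhibition limit, whatever the replicate mean, cut at about 25% in these data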;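 note: 0% = plate neutral control median and 100% = total signal loss; the record names both 10 and 1 µM as test concentration; the first replicate is given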
Target sequence (P42568 whole entry, looked up): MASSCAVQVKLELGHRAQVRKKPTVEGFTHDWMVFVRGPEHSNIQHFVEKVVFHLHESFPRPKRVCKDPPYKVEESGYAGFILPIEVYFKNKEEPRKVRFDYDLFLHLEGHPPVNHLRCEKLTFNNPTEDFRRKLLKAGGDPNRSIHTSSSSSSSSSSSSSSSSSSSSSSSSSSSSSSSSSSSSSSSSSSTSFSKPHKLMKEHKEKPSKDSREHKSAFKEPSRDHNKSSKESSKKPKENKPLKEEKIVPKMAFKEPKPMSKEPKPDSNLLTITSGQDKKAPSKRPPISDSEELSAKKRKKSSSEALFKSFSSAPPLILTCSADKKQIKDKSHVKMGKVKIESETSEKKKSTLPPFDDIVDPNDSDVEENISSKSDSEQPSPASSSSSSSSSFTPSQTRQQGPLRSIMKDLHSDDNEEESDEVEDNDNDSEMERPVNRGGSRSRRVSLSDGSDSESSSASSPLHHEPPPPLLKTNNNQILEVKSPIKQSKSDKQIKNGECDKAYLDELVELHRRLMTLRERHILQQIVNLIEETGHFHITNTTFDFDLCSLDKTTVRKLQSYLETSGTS
* marks the source's active call; other numbers are inactive results; i = inactive. Some of the compounds tested (hit frequency here may not be typical).

FGF22 binding,MLL AF4-AF9 inh,compound
i,-2.2,O=C(C[C@H]1C=C[C@@H](NS(=O)(=O)c2ccc(F)cc2)[C@H](CO)O1)NCc1ccc(Cl)c(Cl)c1
i,-1.0,CC(C)NC(=O)Nc1cccc2c1O[C@H](CN(C)S(C)(=O)=O)[C@H](C)CN([C@H](C)CO)C2=O
i,-3.4,COCC(=O)N1[C@H](CO)[C@@H]2c3ccccc3N(C(=O)Nc3cc(F)ccc3F)C[C@@H]21
i,-0.4,O=C(C[C@H]1CC[C@H]2[C@@H](COC[C@@H](O)CN2C(=O)Nc2cccc(Cl)c2)O1)NCCCN1CCOCC1
i,0.7,C[C@@H]1CN([C@@H](C)CO)C(=O)c2cc(C3=CCCC3)cnc2O[C@@H]1CN(C)C(=O)C1CCOCC1
i,2.9,C[C@H]1CN([C@@H](C)CO)C(=O)c2cccc(NS(=O)(=O)c3ccc(F)cc3)c2O[C@@H]1CN(C)Cc1ccc(-c2ccccc2)cc1
i,2.9,C[C@H](CO)N1C[C@H](C)[C@@H](CN(C)S(=O)(=O)CC(F)(F)F)OCc2ccccc2-c2c(n(C)c3ccccc23)C1=O
i,-0.9,O=C(C[C@@H]1C[C@@H]2c3cc(NC(=O)Nc4ccc(C(F)(F)F)cc4)ccc3O[C@@H]2[C@H](CO)O1)NCCc1ccccc1
i,-6.9,CCC(=O)Nc1ccc2c(c1)OC[C@H](C)N(C(=O)c1cccnc1)C[C@@H](C)[C@@H](OC)CN(C)C2=O
i,-3.6,C[C@@H]1CN([C@H](C)CO)C(=O)c2cccc(NC(=O)C3CC3)c2O[C@@H]1CN(C)S(=O)(=O)c1ccc(Cl)cc1

Full records, quoted from the list. Values in the order: FGF22 binding, MLL AF4-AF9 inh
`CCC(=O)Nc1ccc2c(c1)OC[C@H](C)N(C(=O)c1cccnc1)C[C@@H](C)[C@@H](OC)CN(C)C2=O` is listed with i, -6.9
`CC(C)NC(=O)Nc1cccc2c1O[C@H](CN(C)S(C)(=O)=O)[C@H](C)CN([C@H](C)CO)C2=O` is listed with i, -1.0

Additional structures.
FGF22 binding,MLL AF4-AF9 inh,compound
i,0.9,CO[C@@H]1CN(C)C(=O)c2ccc(NS(C)(=O)=O)cc2OC[C@H](C)N(C(=O)CN(C)C)C[C@@H]1C
i,-4.7,O=C(C(=O)N1CCN(S(=O)(=O)c2ccc(C(F)(F)F)cc2)CC1)c1cccc(C(F)(F)F)c1
i,1.8,O=C(CCN1CCCCC1)N[C@@H]1C=C[C@@H](CC(=O)N2CCC(Cc3ccccc3)CC2)O[C@H]1CO
i,-1.3,C[C@H]1CCCCO[C@@H](CN(C)C(=O)Nc2ccc(C(F)(F)F)cc2)[C@@H](C)CN([C@@H](C)CO)C(=O)c2cc(NS(=O)(=O)c3cccs3)ccc2O1
i,1.8,O=C(N[C@H]1CC[C@H](CCNC(=O)C2CCCC2)O[C@H]1CO)c1ccncc1
i,-1.1,C[C@H](CO)N1C[C@H](C)[C@H](CN(C)C)Oc2ccc(NC(=O)C3CC3)cc2C1=O
i,-4.3,CN(C)C(=O)C[C@@H]1CC[C@@H]2[C@H](COC[C@@H](O)CN2C(=O)C2CCCC2)O1
i,-1.5,O=C(N[C@H]1CC[C@@H](CCn2cc(-c3ccccn3)nn2)O[C@H]1CO)c1ccncc1
i,-8.7,CC(C)CC#Cc1cnc2c(c1)C(=O)N([C@H](C)CO)C[C@H](C)[C@H](CN(C)CC1CCOCC1)O2
i,2.2,C[C@H](O)C#Cc1ccc2c(c1)O[C@H](CN(C)Cc1ccc(-c3ccccc3)cc1)[C@H](C)CN([C@@H](C)CO)S2(=O)=O
i,-2.4,CC(C)NC(=O)Nc1ccc2c(c1)C(=O)N([C@@H](C)CO)C[C@@H](C)[C@H](CN(C)C(=O)Nc1ccc(C(F)(F)F)cc1)OCCCC[C@H](C)O2
i,-0.1,O=C(c1ccccn1)N1C[C@@H]2[C@H](c3ccccc31)[C@H](CO)N2C(=O)CC1CC1
i,-2.0,C[C@H](CO)N1C[C@H](C)[C@H](CN(C)Cc2ccc(C(=O)Nc3ccccc3N)cc2)Oc2ccc(NC(=O)Cc3ccccc3)cc2C1=O
i,0.5,C[C@@H]1CN([C@@H](C)CO)C(=O)c2cc(NC(=O)c3ccncc3)ccc2O[C@H]1CN(C)Cc1ccccc1
i,-1.7,C[C@@H]1CN([C@@H](C)CO)C(=O)Cc2cc(NS(=O)(=O)c3ccc(F)cc3)ccc2O[C@@H]1CN(C)S(=O)(=O)c1ccc(F)cc1
i,1.1,COCc1cn(CC[C@H]2CC[C@@H](NC(=O)Nc3ccc(OC)cc3)[C@@H](CO)O2)nn1
i,10.4,C[C@@H]1CN([C@H](C)CO)C(=O)c2cccc(NS(=O)(=O)c3ccc(Cl)cc3)c2O[C@@H]1CN(C)C(=O)Nc1ccc(F)cc1
i,-2.4,COc1ccccc1NC(=O)N[C@@H]1CC[C@H](CC(=O)NCc2ccc(Cl)c(Cl)c2)O[C@H]1CO
i,-6.5,C[C@H](CO)N1C[C@H](C)[C@@H](CN(C)Cc2ccc(C(=O)O)cc2)Oc2ccc(NC(=O)c3ccncc3)cc2CC1=O
i,-0.8,COc1ccccc1NC(=O)OC[C@@H]1CSCCS(=O)(=O)N1
i,-8.4,COc1ccc(NC(=O)Nc2ccc3c(c2)C(=O)N([C@H](C)CO)C[C@@H](C)[C@@H](CN(C)S(=O)(=O)c2ccc(C)cc2)OCCCC[C@H](C)O3)cc1
i,-20.1,COCC(=O)Nc1ccc2c(c1)[C@@H]1C[C@H](CC(=O)NCc3ccccn3)O[C@@H](CO)[C@@H]1O2
i,0.3,CNC[C@@H]1OCCCC[C@H](C)Oc2ccc(NC(=O)Cc3ccccc3)cc2C(=O)N([C@@H](C)CO)C[C@@H]1C
i,1.4,C[C@H]1CN([C@@H](C)CO)C(=O)c2cccc(NS(=O)(=O)c3cn(C)cn3)c2O[C@H]1CN(C)S(=O)(=O)c1cn(C)cn1
i,-0.9,Cc1ccc(S(=O)(=O)N(C)C[C@H]2Oc3ccc(NC(=O)Nc4ccc(F)cc4)cc3CC(=O)N([C@H](C)CO)C[C@H]2C)cc1
i,-1.4,C[C@@H]1CN([C@@H](C)CO)C(=O)c2cc(NC(=O)NC3CCCCC3)ccc2O[C@@H]1CN(C)S(C)(=O)=O
i,1.2,C[C@H](CO)N1C[C@H](C)[C@H](CN(C)Cc2ccccc2C(=O)O)OCc2cn(nn2)CCCC1=O
i,5.2,C[C@@H]1CN([C@@H](C)CO)C(=O)Cc2cc(NC(=O)Nc3cccc4ccccc34)ccc2O[C@H]1CN(C)Cc1ccc2c(c1)OCO2
i,-2.2,COCC(=O)N1C[C@H](C)[C@@H](OC)CN(C)C(=O)c2ccc(NC(=O)c3ccc(OC)cc3)cc2OC[C@H]1C
i,-0.7,C[C@H](CO)N1C[C@H](C)[C@@H](CN(C)C(=O)Nc2cccc3ccccc23)Oc2ccc(NC(=O)Nc3ccccc3)cc2CC1=O
i,3.7,CC(C)C#Cc1ccc2c(c1)O[C@@H](CN(C)C(=O)c1cccnc1)[C@H](C)CN([C@@H](C)CO)S2(=O)=O
i,-4.3,C[C@H]1CN([C@@H](C)CO)C(=O)c2cccc(NC(=O)C3CCOCC3)c2O[C@H]1CN(C)C(=O)Nc1cccc2ccccc12
i,1.3,C[C@H]1CCCCO[C@H](CN(C)CC2CCCCC2)[C@@H](C)CN([C@@H](C)CO)C(=O)c2cc(NC(=O)Cc3ccccc3)ccc2O1
i,-2.4,C[C@H]1CN([C@@H](C)CO)S(=O)(=O)c2ccc(-c3cncnc3)cc2O[C@H]1CN(C)C(=O)Cc1ccncc1
i,0.1,C[C@@H]1CCCCO[C@@H](CN(C)S(=O)(=O)c2ccc(Cl)cc2)[C@H](C)CN([C@@H](C)CO)C(=O)c2cc(NC(=O)Nc3ccc4c(c3)OCO4)ccc2O1
i,2.4,C[C@@H]1CCCCO[C@@H](CN(C)S(=O)(=O)c2ccc(F)cc2)[C@H](C)CN([C@H](C)CO)C(=O)c2cc(NS(=O)(=O)c3ccccc3)ccc2O1
i,5.2,C[C@H]1CN([C@@H](C)CO)C(=O)Cc2cc(NC(=O)Nc3ccc4c(c3)OCO4)ccc2O[C@@H]1CN(C)S(=O)(=O)c1ccccc1
i,1.7,C[C@H](CO)N1C[C@H](C)[C@@H](CN(C)Cc2ccncc2)Oc2ccc(NS(=O)(=O)c3ccccc3)cc2C1=O
i,-3.6,C[C@@H]1CN([C@H](C)CO)C(=O)Cc2cc(NC(=O)CCC(F)(F)F)ccc2O[C@@H]1CN(C)C(=O)Nc1ccc(F)cc1
i,-4.9,Cc1noc(C)c1S(=O)(=O)Nc1cccc2c1O[C@@H](CN(C)CC1CCCCC1)[C@@H](C)CN([C@@H](C)CO)C2=O
i,-0.4,C[C@@H]1CN([C@H](C)CO)C(=O)Cc2cc(NC(=O)Nc3cccc4ccccc34)ccc2O[C@@H]1CN(C)S(C)(=O)=O
i,-7.9,CC(C)NC(=O)N(C)C[C@@H]1Oc2ccc(NC(=O)Cn3cnnn3)cc2CC(=O)N([C@H](C)CO)C[C@@H]1C
i,-2.6,COCC(=O)N1CC(=O)N2[C@H](C1)[C@@H](c1ccc(Br)cc1)[C@@H]2CO
i,-1.9,COc1ccc(-c2cnc3c(c2)C(=O)N([C@@H](C)CO)C[C@H](C)[C@@H](CN(C)C(=O)Cc2ccccn2)O3)cc1
i,2.0,CC(C)C#Cc1cnc2c(c1)C(=O)N([C@@H](C)CO)C[C@H](C)[C@@H](CN(C)Cc1ccc3c(c1)OCO3)O2
i,-10.0,COc1ccc(CN(C)C[C@@H]2OCCCC[C@H](C)Oc3ccc(NS(C)(=O)=O)cc3C(=O)N([C@H](C)CO)C[C@H]2C)cc1
i,-4.5,COCC(=O)N(C)C[C@H]1Oc2ncc(-c3ccc(C#N)cc3)cc2C(=O)N([C@@H](C)CO)C[C@H]1C
i,-1.7,C/C=C/c1cccc(-c2nc(C(=O)NCc3cccc(OC)c3)cc3c2[C@@H](CCO)N([S@](=O)C(C)(C)C)C3)c1
i,-1.5,CS(=O)(=O)N1[C@H](CO)[C@@H](c2ccccc2-c2ccccc2F)[C@@H]1C#N
i,-2.0,COc1ccccc1CNC(=O)C[C@@H]1C[C@H]2c3cc(NS(C)(=O)=O)ccc3O[C@H]2[C@@H](CO)O1

(cont.)
FGF22 binding,MLL AF4-AF9 inh,compound
i,0.8,C[C@H](CO)N1C[C@H](C)[C@H](CN(C)C(=O)Nc2ccc(F)cc2)Oc2ncc(C#CCN(C)C)cc2C1=O
i,0.6,O=C(C[C@@H]1CC[C@@H](NC(=O)c2cccc(F)c2)[C@@H](CO)O1)NCc1ccc(Oc2ccccc2)cc1
i,2.7,N#C[C@@H]1[C@H](c2ccc(-c3cncnc3)cc2)[C@@H](CO)N1C(=O)Cc1ccccc1
i,1.5,COc1ccc(S(=O)(=O)Nc2cccc3c2O[C@@H](CN(C)C(=O)Nc2ccc4c(c2)OCO4)[C@@H](C)CN([C@@H](C)CO)C3=O)cc1
i,-0.7,CCCNC(=O)N1C[C@@H](C)[C@@H](OC)CN(C)C(=O)c2cc(NC(=O)CC)ccc2OC[C@H]1C
i,-1.8,CCC(=O)N1[C@H](CNC(C)=O)[C@@H](c2ccc(-c3ccc(F)cc3)cc2)[C@@H]1CO
i,-1.1,C[C@@H]1CN([C@H](C)CO)C(=O)c2cc(NS(=O)(=O)c3cn(C)cn3)ccc2O[C@H]1CN(C)S(=O)(=O)c1cccs1
i,-4.8,CC(C)NC(=O)N(C)C[C@@H]1Oc2c(NS(=O)(=O)c3cccs3)cccc2C(=O)N([C@@H](C)CO)C[C@H]1C
i,-3.0,COc1ccc2c3c(n(C)c2c1)[C@@H](CO)N(C)CC31CN(C(=O)C2CCC2)C1
i,-2.2,CC(C)NC(=O)N(C)C[C@H]1Oc2cc(Br)ccc2S(=O)(=O)N([C@H](C)CO)C[C@@H]1C

Grouped by structure, the compounds so far with a CF3 group (6)
FGF22 binding,MLL AF4-AF9 inh,compound
i,2.9,C[C@H](CO)N1C[C@H](C)[C@@H](CN(C)S(=O)(=O)CC(F)(F)F)OCc2ccccc2-c2c(n(C)c3ccccc23)C1=O
i,-0.9,O=C(C[C@@H]1C[C@@H]2c3cc(NC(=O)Nc4ccc(C(F)(F)F)cc4)ccc3O[C@@H]2[C@H](CO)O1)NCCc1ccccc1
i,-4.7,O=C(C(=O)N1CCN(S(=O)(=O)c2ccc(C(F)(F)F)cc2)CC1)c1cccc(C(F)(F)F)c1
i,-1.3,C[C@H]1CCCCO[C@@H](CN(C)C(=O)Nc2ccc(C(F)(F)F)cc2)[C@@H](C)CN([C@@H](C)CO)C(=O)c2cc(NS(=O)(=O)c3cccs3)ccc2O1
i,-2.4,CC(C)NC(=O)Nc1ccc2c(c1)C(=O)N([C@@H](C)CO)C[C@@H](C)[C@H](CN(C)C(=O)Nc1ccc(C(F)(F)F)cc1)OCCCC[C@H](C)O2
i,-3.6,C[C@@H]1CN([C@H](C)CO)C(=O)Cc2cc(NC(=O)CCC(F)(F)F)ccc2O[C@@H]1CN(C)C(=O)Nc1ccc(F)cc1

Further structures follow:
FGF22 binding,MLL AF4-AF9 inh,compound
i,1.4,C[C@H](CO)N1C[C@H](C)[C@@H](CN(C)CC2CCCCC2)Oc2ccc(NC(=O)CCC(F)(F)F)cc2C1=O
i,-18.9,C[C@H](CO)N1C[C@H](C)[C@H](CN(C)CC2CCCCC2)OCCCC[C@H](C)Oc2ccc(NC(=O)Nc3ccc4c(c3)OCO4)cc2C1=O
i,-2.3,CC(C)NC(=O)N(C)C[C@@H]1Oc2ccc(NC(=O)Nc3ccc(F)cc3)cc2CC(=O)N([C@@H](C)CO)C[C@@H]1C
i,-0.7,O=C(C[C@@H]1CC[C@H]2[C@@H](COC[C@@H](O)CN2C(=O)Nc2ccccc2)O1)NC1Cc2ccccc2C1
i,-0.4,O=C(O)C[C@@H]1CC[C@@H](NC(=O)c2ccncc2)[C@H](CO)O1
i,-2.5,COc1ccc(NC(=O)N(C)C[C@@H]2Oc3ccc(NC(=O)Cn4cnnn4)cc3C(=O)N([C@H](C)CO)C[C@H]2C)cc1
